Arbovirus anti = blocks arbovirus infection; arbovirus infection cell-based antiviral screen; inhibition, % at 10 µM; 200,000 tested, 0.37% active; AID 1251;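 active means inhibition from about 30%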;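 further: bluetongue infection of BSR cells; cell survival read as ATP light after 72 h; 0% = infected wells without compound and 100% = uninfected wells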
RecA intein inh = blocks M. tuberculosis RecA intein splicing; cell-free RecA intein splicing, fluorescence; inhibition, %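 (about 9 µM by stock and volumes)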; 290,000 tested, 0.75% active; in the data active means inhibition above about 30%; inconclusive means no clear call, values can overlap the other calls;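 further: 0% = vehicle wells and 100% = reference inhibitor control wells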
Target sequence (P9WHJ3 whole entry, looked up): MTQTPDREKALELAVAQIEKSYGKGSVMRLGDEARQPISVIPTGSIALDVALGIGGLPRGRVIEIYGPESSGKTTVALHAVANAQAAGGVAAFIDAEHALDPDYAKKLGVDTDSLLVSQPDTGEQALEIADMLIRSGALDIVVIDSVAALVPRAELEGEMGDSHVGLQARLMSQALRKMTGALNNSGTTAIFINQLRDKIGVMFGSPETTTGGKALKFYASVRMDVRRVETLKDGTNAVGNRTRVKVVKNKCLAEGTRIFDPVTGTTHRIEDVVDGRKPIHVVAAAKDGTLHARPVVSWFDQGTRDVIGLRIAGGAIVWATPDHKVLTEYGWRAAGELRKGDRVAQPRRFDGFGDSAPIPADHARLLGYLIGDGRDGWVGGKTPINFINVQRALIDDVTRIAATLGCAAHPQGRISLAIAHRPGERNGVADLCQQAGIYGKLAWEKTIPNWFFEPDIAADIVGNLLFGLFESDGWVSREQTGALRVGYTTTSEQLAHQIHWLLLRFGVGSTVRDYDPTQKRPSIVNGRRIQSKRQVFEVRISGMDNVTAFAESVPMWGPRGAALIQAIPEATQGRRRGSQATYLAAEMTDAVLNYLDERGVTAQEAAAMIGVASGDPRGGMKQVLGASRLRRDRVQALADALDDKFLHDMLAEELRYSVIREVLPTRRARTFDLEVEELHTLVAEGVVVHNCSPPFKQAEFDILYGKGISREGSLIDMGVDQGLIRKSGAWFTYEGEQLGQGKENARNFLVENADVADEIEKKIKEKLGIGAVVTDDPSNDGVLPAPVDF
Mtb H37Rv = M. tuberculosis H37Rv growth inhibitors, H37Rv strain (AID 1626). M. tuberculosis H37Rv growth inhibition; higher % means a stronger effect. one-dose inhibition, % at 10 µM; IC50 in µM for titrated hits. 220,000 tested, 0.95% active;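 active means confirmed in a dose series; inconclusive means inhibition above 80% but not taken into the dose series; inactive means below 80% or under 30% at every dose of the series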;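 further: bacteria incubated seven days before Alamar blue readout; 0% = bacteria only wells and 100% = bacteria with antibiotic wells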
Mtb betalactam = beta-lactam sensitization of Mtb H37Rv; 330,000 tested, 0.27% active; inhibition, % at 25 µM; M. tuberculosis H37Rv growth with meropenem, percent inhibition; hits of this screen are not shown here; AID 434955;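 active means about 74% or more and at least 40 points above the plate without the antibiotic, then above 30% in a dose series; inconclusive means first-round hits that could not be retested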;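 further: growth measured after seven days incubation then overnight dye step; 0% = bacteria only wells and 100% = bacteria with antibiotic; twin plates without the antibiotic show which effects depend on it; some results filed as inactive read as strong as hits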
YopH inh = YopH (Yersinia) phosphatase inhibition. fluorescence Ex485/Em525. inhibition, %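 (about 10 µM by stock and volumes)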. 140,000 tested, 0.16% active;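 active means inhibition of 50% or more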;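 further: controls were vehicle for no effect and minimum signal wells for full effect; inactives centre near -20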
Arbovirus anti repeat = second read-out of Arbovirus anti, no call of its own (marks repeat the call); inhibition, %; measured here: 10K subset replicate screen; many hits read low in the repeat;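 first of two repeat runs on a subset; 0% = infected and 100% = uninfected wells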
Numbers without * were called inactive; ? = inconclusive; nt = no result given. An excerpt; the hit share may differ from the screen's.

Preview, 22 compounds:
SMILES	Arbovirus anti	RecA intein inh	Mtb H37Rv	Mtb betalactam	YopH inh	others
Cc1ccc(-c2nn3nnnc3c3ccccc23)cc1C	1	1.1	3%	0	-26
COC(=O)C1=C(c2cc3ccccc3s2)C[C@@H]2CC[C@H]1N2C(=O)N1CCCC1	nt	5.0	-3%	1	nt
Cc1cccc(NC(=O)NCC(c2cccnc2)N2CCOCC2)c1 (stereo not drawn)	7	-1.1	nt	1	-40
O=C(Nn1c(=S)[nH]c2ccccc2c1=O)c1ccncc1	2	0.5	1%	-2	-41	Arbovirus anti repeat=-1
O=C(Nc1ccncc1)Nc1ccc(F)cc1F	11	2.3	-3%	-3	-14
CCC(C)NC(=O)c1n[nH]c(=O)c2ccccc12 (stereo not drawn)	-5	3.0	-5%	-4	2
O=C(COc1cccc(-n2cnnn2)c1)Nc1ccccc1	1	1.0	-11%	8	-41
COC(=O)c1ccc(CN2CCC(CO)(Cc3cccc(OC)c3)CC2)cc1	4	-5.0	-5%	-3	nt
S=C1CSc2ccccc2N1	5	0.4	-7%	0	nt
CCOC(=O)c1cn(CC(=O)Nc2ccc(C)cc2)nn1	3	0.6	-10%	0	-42
CC(=O)c1c(C)[nH]c(C(=O)O)c1C	1	0.1	1%	-6	nt
CCOC(=O)Cc1csc(NC(=O)c2c(-c3c(Cl)cccc3Cl)noc2C)n1	-9	6.0	3%	0	-60
O=C(N/N=C\c1ccc(COc2ccc([N+](=O)[O-])cc2)o1)c1ccc(Cl)cc1	-8	-0.4	1%	91	-3
Cc1cc(N2CCC(C)CC2)nc(-n2nc(C)cc2C)n1	-8	6.8	3.2µM*	95	-25
Nc1cc(-c2ccccc2)nn1Cc1ccccc1	-6	nt	4%	2	nt
CN(C)S(=O)(=O)c1ccc(C(=O)NCc2nnc(SCC(=O)N3CCCC3)o2)cc1	nt	1.3	nt	?	nt
CC(C)CNC(=O)C1CCCN(C(=O)NCc2ccccc2)C1 (stereo not drawn)	10	-1.9	0%	2	nt
CCN(CC)CCCNc1nc2cc(OC)c(OC)cc2c2nc(-c3cccnc3)nn12	-13	1.8	8%	89	-11
O=c1c2ccccc2sn1-c1ccccc1	-41	0.1	?	96	-23
O=C(O)c1cc(-c2c[nH]c3ccccc23)nc2cc3ccccc3cc12	nt	-8.1	9%	25	nt
CCCCC(=O)Nc1cccc(C(C)O)c1 (stereo not drawn)	14	-3.0	8%	-3	nt
Nc1nncn1C(=O)CCc1ccccc1	3	1.4	-8%	7	-26

The whole of this part, from the first entry:
SMILES	Arbovirus anti	RecA intein inh	Mtb H37Rv	Mtb betalactam	YopH inh	others
Cc1ccc(-c2nn3nnnc3c3ccccc23)cc1C	1	1.1	3%	0	-26
COC(=O)C1=C(c2cc3ccccc3s2)C[C@@H]2CC[C@H]1N2C(=O)N1CCCC1	nt	5.0	-3%	1	nt
Cc1cccc(NC(=O)NCC(c2cccnc2)N2CCOCC2)c1 (stereo not drawn)	7	-1.1	nt	1	-40
O=C(Nn1c(=S)[nH]c2ccccc2c1=O)c1ccncc1	2	0.5	1%	-2	-41	Arbovirus anti repeat=-1
O=C(Nc1ccncc1)Nc1ccc(F)cc1F	11	2.3	-3%	-3	-14
CCC(C)NC(=O)c1n[nH]c(=O)c2ccccc12 (stereo not drawn)	-5	3.0	-5%	-4	2
O=C(COc1cccc(-n2cnnn2)c1)Nc1ccccc1	1	1.0	-11%	8	-41
COC(=O)c1ccc(CN2CCC(CO)(Cc3cccc(OC)c3)CC2)cc1	4	-5.0	-5%	-3	nt
S=C1CSc2ccccc2N1	5	0.4	-7%	0	nt
CCOC(=O)c1cn(CC(=O)Nc2ccc(C)cc2)nn1	3	0.6	-10%	0	-42
CC(=O)c1c(C)[nH]c(C(=O)O)c1C	1	0.1	1%	-6	nt
CCOC(=O)Cc1csc(NC(=O)c2c(-c3c(Cl)cccc3Cl)noc2C)n1	-9	6.0	3%	0	-60
O=C(N/N=C\c1ccc(COc2ccc([N+](=O)[O-])cc2)o1)c1ccc(Cl)cc1	-8	-0.4	1%	91	-3
Cc1cc(N2CCC(C)CC2)nc(-n2nc(C)cc2C)n1	-8	6.8	3.2µM*	95	-25
Nc1cc(-c2ccccc2)nn1Cc1ccccc1	-6	nt	4%	2	nt
CN(C)S(=O)(=O)c1ccc(C(=O)NCc2nnc(SCC(=O)N3CCCC3)o2)cc1	nt	1.3	nt	?	nt
CC(C)CNC(=O)C1CCCN(C(=O)NCc2ccccc2)C1 (stereo not drawn)	10	-1.9	0%	2	nt
CCN(CC)CCCNc1nc2cc(OC)c(OC)cc2c2nc(-c3cccnc3)nn12	-13	1.8	8%	89	-11
O=c1c2ccccc2sn1-c1ccccc1	-41	0.1	?	96	-23
O=C(O)c1cc(-c2c[nH]c3ccccc23)nc2cc3ccccc3cc12	nt	-8.1	9%	25	nt
CCCCC(=O)Nc1cccc(C(C)O)c1 (stereo not drawn)	14	-3.0	8%	-3	nt
Nc1nncn1C(=O)CCc1ccccc1	3	1.4	-8%	7	-26
CC1(C)CC2CC(C)(CN2S(=O)(=O)c2cccc(N)c2)C1 (stereo not drawn)	-2	0.6	-3%	-10	-4
CCCCC(c1nnnn1C1CCCC1)N1CCN(C(=O)c2ccco2)CC1 (stereo not drawn)	-3	7.7	41%	-5	-6
Cc1sc2ccccc2[n+]1CC(=O)O	nt	-4.1	-2%	-6	nt
O=C(CNC(=O)c1ccccc1)Nc1cccc(C(F)(F)F)c1	0	1.6	1%	-3	-16
CN(c1ccc([N+](=O)[O-])cc1C(N)=O)C1CCCCC1	21	3.9	-1%	-4	nt
COc1cc(S(=O)(=O)N2CCN(c3ccccc3)CC2)ccc1F	1	2.0	0%	-1	nt
C[C@@H](C(=O)NCc1ccccc1)N1C(=O)C2CC=CCC2C1=O (stereo partly drawn)	3	-0.7	-14%	-5	-6
CCN1CCCC1CNC(=O)CN1C(=O)COc2ccc(C)cc21 (stereo not drawn)	9	1.9	-1%	-5	-21
CN(Cc1ccccc1)CC(O)COc1ccc(CNCc2cc3ccccc3s2)cc1 (stereo not drawn)	nt	-1.5	nt	69	nt
O=C(Nc1ccc(NC(=O)c2ccccc2F)cn1)c1ccco1	nt	-1.5	nt	-3	nt
NC12CN3CN(CN(C3)C1)C2 (tested in a mixture with another compound)	8	1.5	-5%	-4	-40
O=C(CCC(=O)NNC(=O)Nc1ccc(Cl)cc1)NCc1ccccc1	0	1.9	-1%	-5	-35
COc1ccccc1NC(=O)NNC(=O)CCN1CCOCC1	nt	2.6	nt	?	nt
CC(C)(C)c1ccc(C(=O)Nc2ccc(Cl)cc2)cc1	7	-6.4	-4%	5	-19
COC(=O)c1ccc(CSc2nnc(NC(=O)c3cc4c(s3)CCCC4)s2)cc1	-3	-0.3	-1%	8	-17
Cc1cc(C(=O)NCCCc2ccccc2)no1	4	4.3	12%	-2	-17
COc1ccccc1OCC(=O)NC1CCCc2ccccc21 (stereo not drawn)	nt	4.0	nt	1	nt
Cc1nc(C(=O)N2CCCC(Nc3ccc(C)c(C)c3)C2)cs1 (stereo not drawn)	nt	-2.0	nt	0	nt
COc1ccc(N(Cc2cc3cc(OC)ccc3[nH]c2=O)S(C)(=O)=O)cc1	7	5.1	2%	-1	-32
O=C(NC12CC3CC(CC(C3)C1)C2)N1CCC(O)CC1	4	3.1	-2%	-7	-28
O=C(NC(=S)NNC(=O)c1cc2ccccc2cc1O)c1ccco1	-17	11	67%	40	nt
C/C=C/c1ccc(OCC(=O)OCC(=O)Nc2c(C)nn(-c3ccccc3)c2C)c(OC)c1	nt	-3.5	nt	-1	nt
COc1ccccc1N1CCN(C(=O)C(C)CS(=O)(=O)c2ccc3c(c2)NC(=O)CS3)CC1 (stereo not drawn)	nt	-2.2	nt	-6	nt
O=C(NNC(=O)c1ccccc1O)c1ccc(NS(=O)(=O)c2ccc(F)cc2)cc1	nt	14	nt	-2	nt
O=c1c(Cl)c(N2CCC3(CC2)OCCO3)cnn1C12CC3CC(CC(C3)C1)C2	nt	0.7	-7%	-5	nt
CC(C)N(CCNCC(O)COc1ccc(C(C)(C)c2ccccc2)cc1)C(C)C (stereo not drawn)	-4	4.8	10%	41	nt
CCCc1cc(=O)[nH]c(SCc2csc(-c3ccccc3)n2)n1	2	0.3	-2%	-2	-24
Cc1ccc(Cn2ncc(C)c2N)o1	0	0.9	7%	-3	nt
COc1ccc(OC)c(C2C(C(=O)c3cc4ccccc4o3)=C(O)C(=O)N2c2cc(C)on2)c1 (stereo not drawn)	6	-0.6	-5%	36	-37
COc1cc(C(=O)COC(=O)CNC(=O)C2CCCCC2)cc(OC)c1OC	-4	-0.9	nt	3	0
N#CCC(=O)Nc1ccc(C(=O)OCC(=O)C23CC4CC(CC(C4)C2)C3)cc1	nt	-3.4	nt	-4	nt
O=C(/C=C/c1ccc(F)cc1)NNC(=O)CCN1CCN(Cc2ccccc2)CC1	-3	nt	5%	1	nt
COc1ccc([N+](=O)[O-])cc1C(=O)Nc1ccc(Cc2ccncc2)cc1	-13	-1.1	-2%	2	nt
Oc1ccc(C[C@@H]2CNCCN2CCc2cccc3ccccc23)cc1	nt	0.2	nt	1	nt
O=C(Nc1ccc(-n2cnnn2)cc1)c1cn2ccccc2n1	nt	nt	-18%	1	nt
CCOC(=O)CCn1nnc(N)n1	4	-2.9	-15%	3	-18
CCCCCC(O)(c1ccc(OC)cc1)C(CN1CCOCC1)c1ccccc1 (stereo not drawn)	nt	11	nt	8	nt
N/C(Cc1cccs1)=N\OC(=O)COc1ccccc1	2	6.5	18%	-2	-13

In the list so far, three contain an aryl thioether with sulfur outside any ring.
SMILES	Arbovirus anti	RecA intein inh	Mtb H37Rv	Mtb betalactam	YopH inh	others
CN(C)S(=O)(=O)c1ccc(C(=O)NCc2nnc(SCC(=O)N3CCCC3)o2)cc1	nt	1.3	nt	?	nt
COC(=O)c1ccc(CSc2nnc(NC(=O)c3cc4c(s3)CCCC4)s2)cc1	-3	-0.3	-1%	8	-17
CCCc1cc(=O)[nH]c(SCc2csc(-c3ccccc3)n2)n1	2	0.3	-2%	-2	-24

Continuation:
SMILES	Arbovirus anti	RecA intein inh	Mtb H37Rv	Mtb betalactam	YopH inh	others
CCOc1ccc2nc(SCc3cccc(C)c3)nc(C)c2c1	-6	-1.5	-8%	3	2
NS(=O)(=O)c1ccc(NC(=O)CCC2CCCCC2)cc1	14	-1.6	-3%	-3	-29
O=C(NNC(=O)c1ccc2nonc2c1)Nc1ccc(Cl)cc1	nt	15	7%	-12	nt
O=C(NCc1nc2ccccc2[nH]1)C1CCCCC1	-3	-2.1	6%	-7	nt
O=C1CCC([N+](=O)[O-])C(c2ccc(C(F)(F)F)cc2)N1 (stereo not drawn)	nt	1.1	nt	-12	nt
N#C/C(=C\c1ccco1)C(=O)Nc1cccc2ncccc12	-7	3.0	4%	-1	-25
CCOC(=O)C(NC(=O)CC)(N1CCc2ccccc2C1)C(F)(F)F (stereo not drawn)	25	2.5	-3%	1	-15
O=C(CCc1c[nH]c2ccccc12)NCc1ccc2c(c1)OCO2	-8	1.7	6%	6	-18
Nc1cc(C(F)(F)F)ccc1Nc1ccccc1	-8	6.4	4%	-2	nt
CCOC(=O)c1sc(NC(=O)C2CC2)nc1C	-3	-2.3	-2%	-11	-6	Arbovirus anti repeat=3
COc1ccc(C(=O)OCC(=O)c2ccc(Cl)s2)c(OC)c1OC	nt	4.8	nt	-4	nt
CC1=[N+](C)N(c2ccccc2)C(=O)C1N=Cc1c(Cl)cccc1Cl (stereo not drawn)	7	-4.7	-5%	-7	-10
COc1ccccc1C(=O)Nc1c(C)n(C)n(-c2ccccc2)c1=O	3	-2.5	-1%	-1	-31
